From PubChem BioAssay
Choline anaer gr – blocks anaerobic gram-negative growth on choline. Gram-negative bacterium anaerobic choline minimal medium, absorbance growth; stronger effect = lower value; many inactives read as strong as hits in the columns shown. calls only. 55,000 compounds, 0.2% hits. AID 1963822;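 active means growth z-score on choline under -2 at 7 or 20 h with little or no fall on glycerol, limits in tiers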;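 further: stock transfer was 300 nL into about 50 µL; the organism is E. coli; final concentration not given here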
Choline anaer gr early – also measured in Choline anaer gr; calls as there; z-score; measured here: choline growth z-score, timepoint 1;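 score of optical density at 7 h as mean of two plates; lower means less growth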
Numbers without * were called inactive; i = inactive; & = joins results of further samples. The list is partial; rates above refer to the full screens.

Each structure is followed by: Choline anaer gr	Choline anaer gr early
> CCC(=O)Nc1cccc(-c2noc(C3CCCN(C(=O)c4ccc(C)cc4)C3)n2)c1 (configuration not stated)
    i	0.53
> O=C(Nc1nc2ccc(S(=O)(=O)N3CCOCC3)cc2s1)C1CCCO1 (configuration not stated)
    i	0.19
> CC1CCN(C(=O)Cn2cc(SCC(=O)N3CCOCC3)c3ccccc32)CC1
    i	0.38
> Cc1cc(=O)n2nc(N3CCC(C(=O)NCc4ccc(Cl)cc4)CC3)sc2n1
    i	-2.3
> CNNCc1ccc(C(=O)NC(C)C)cc1
    i	0.6&-0.01&0.47
> CN(C)S(=O)(=O)c1ccc(-c2nnc(C(=O)NCc3ccc4c(c3)OCO4)o2)cc1
    i	-0.5
> O=C(NC1CCCCC1)N1CCc2cc(S(=O)(=O)Nc3ccc(Br)cc3F)ccc21
    i	0.42
> C=CCNC(=O)c1ccccc1NC(=O)c1nsc2ccccc12
    i	-0.29
> Cc1sc(-c2cc(C(F)(F)F)[nH]n2)cc1S(=O)(=O)N1CCN(c2ccc(F)cc2)CC1
    i	0.68
> O=S(=O)(NCc1cccs1)c1ccc(-c2cnc(C3CCCC3)o2)s1
    i	-0.64
> CC(=O)N1c2ccc(S(=O)(=O)N3CCOCC3)cc2CC1C(=O)NCCN1CCCC1 (configuration not stated)
    i	0.52
> CCOC(=O)c1[nH]c(C)c(CCC(=O)N2CCCC(C(=O)NCCN3CCN(CC)CC3)C2)c1C (configuration not stated)
    i	-0.54
> CCCNC(=O)CN1CCN(C(=O)c2ccc(N3CCNCC3)c(NS(C)(=O)=O)c2)CC1
    i	0.74
> O=C(c1cccc(-c2nc(-c3ccc(F)cc3)no2)c1)N1CCC(N2CCCCC2)CC1
    i	-0.27
> Cn1nc(C(=O)Nc2ccc(Br)cc2F)cc1C(F)(F)F
    i	1.4
> CS(=O)(=O)N(Cc1csc(-c2cccs2)n1)C1CCN(C(=O)C2CC2)CC1
    i	0.16
> COc1cccc(C2C3=C(CCCC3=O)Nc3onc(C)c32)c1OC (configuration not stated)
    i	-0.76
> O=C(Cn1c(=O)[nH]c2c(-c3ccccc3)c[nH]c2c1=O)N1CCc2ccccc2C1
    i	-0.61
> CCC(=O)Nc1ccc(N2CCn3c(nc4cc(Cl)ccc43)C2)cc1
    i	0.22
> CCOc1nc2c(c(C)nn2-c2ccc(C)cc2)c(C)c1CCC(=O)Nc1cccc(OC)c1
    i	1.9
> O=C(Nc1ccc(Br)cc1F)C1CCCN(c2cnc3ccccc3n2)C1 (configuration not stated)
    i	-0.73
> O=S(=O)(c1ccc2c(c1)-c1oncc1CO2)N1CCN(C2CCCCC2)CC1
    i	-0.86
> Cc1nn(CC(=O)N2CC(C)CC(C)C2)c(=O)c2cc3sccc3n12 (configuration not stated)
    i	0.24
> COCCn1c(=O)[nH]c(=O)c2c3c(cnc21)C(=O)CCC3
    i	-1.1
> Cc1ccc2oc(N3CCN(C(=O)c4cccc(-c5noc(C)n5)c4)CC3)nc2n1
    i	-0.45
> COc1cc(N2CCn3c(nc4cc(Cl)ccc43)C2)ccc1NS(C)(=O)=O
    i	-2
> CCOc1cccc(CNC(=O)c2sccc2N(C)S(=O)(=O)c2ccccc2)c1
    i	0.55
> Cc1csc(-c2cc(S(=O)(=O)N3CCC(C)CC3)cn2CC(=O)N2CCCCC2)n1
    i	0.3
> O[C@H](CNC[C@@H](O)[C@H]1CCc2cc(F)ccc2O1)[C@@H]1CCc2cc(F)ccc2O1
    i	-2.9
> Cc1ccn2c(=O)c(NC(=O)c3ccc(F)cc3)cnc2c1
    i	0.62

Of the compounds above, these contain a Cl atom.
Each structure is followed by: Choline anaer gr	Choline anaer gr early
> Cc1cc(=O)n2nc(N3CCC(C(=O)NCc4ccc(Cl)cc4)CC3)sc2n1
    i	-2.3
> CCC(=O)Nc1ccc(N2CCn3c(nc4cc(Cl)ccc43)C2)cc1
    i	0.22
> COc1cc(N2CCn3c(nc4cc(Cl)ccc43)C2)ccc1NS(C)(=O)=O
    i	-2

A different layout for two compounds above:
Structure	Choline anaer gr	Choline anaer gr early
CCOc1nc2c(c(C)nn2-c2ccc(C)cc2)c(C)c1CCC(=O)Nc1cccc(OC)c1	i	1.9
CC1CCN(C(=O)Cn2cc(SCC(=O)N3CCOCC3)c3ccccc32)CC1	i	0.38

(further entries)
Each structure is followed by: Choline anaer gr	Choline anaer gr early
> O=C(O)Cc1c[nH]c2ccc(O)cc12
    i	-0.77
> Cc1cc(C(=O)Nc2ccc(F)c(F)c2)c2c(=O)n(C)c(=O)n(C)c2n1
    i	-0.06
> Cc1cnc(C(=O)NCCc2ccc(S(=O)(=O)NC(=O)NC3CCCCC3)cc2)cn1
    i	0.05&1.4&0.66&-0.66
> CC1CCCN(c2ncnc3c2nnn3C)C1 (configuration not stated)
    i	0.36
> CCCCC[C@H](O)/C=C/[C@H]1C2COC(C2)[C@@H]1C/C=C\CCCC(=O)O (some centres not stated)
    i	0
> CC1CCC(NC(=O)C2(C)Cn3c(cc4occc43)C(=O)N2CC2CCCO2)CC1 (configuration not stated)
    i	1.1
> COc1cc(OC)cc(C(=O)Nc2nc(CC(=O)Nc3nc4c(C)cccc4s3)cs2)c1
    i	1
> CS(=O)(=O)Nc1nc2n(n1)C(c1c(F)cccc1Cl)C=C(c1ccc(Cl)cc1)N2 (configuration not stated)
    i	0.32
> Cc1noc(C)c1C1CCCN1Cc1ccc(F)c(F)c1 (configuration not stated)
    i	-1
> CCc1onc(C)c1C1CCCN1Cc1ccc(OC)c(Br)c1 (configuration not stated)
    i	0.14
> COc1cc(=O)n(-c2ccc(F)cc2)nc1C(=O)Nc1ccc(-c2nc3ccc(C)cc3s2)cc1
    i	0.89
> CCOCCCN1C(=O)c2cc3c(OC)ccc(OC)c3n2CC1(C)C(=O)NC1CCC(C)CC1 (configuration not stated)
    i	0.76
> CCn1c(=O)c(C(=O)Nc2nccs2)c(O)c2ccccc21
    i	1.2
> COc1ccc(OC)c(NC(=O)c2[nH]c(C)c(S(=O)(=O)N3CCCCC3)c2C)c1
    i	-0.28
> O=C(CCc1nc(CSc2nc3cc(Cl)ccc3o2)no1)Nc1nncs1
    i	1.6
> Cc1ccc(N(CC(=O)NCCC2=CCCCC2)S(=O)(=O)c2c(C)nn(C)c2C)cc1
    i	0.13
> CC(C)NC(=O)CC1CCN(S(=O)(=O)c2cccs2)CC1
    i	0.47
> Cc1sc(-c2ccno2)cc1S(=O)(=O)N(Cc1ccco1)C1CCCC1
    i	-1.1
> Cc1cccnc1NC(=O)CN(C)S(=O)(=O)c1ccc2c(c1)CC(C)N2C(=O)C1CC1 (configuration not stated)
    i	-0.58
> COC(=O)c1c(-c2ccc(F)cc2)noc1NCCC1=CCCCC1
    i	0.09
> CC1(CNS(=O)(=O)c2ccc(F)c(F)c2)CCOCC1
    i	1.8
> Cc1n[nH]c(C)c1-c1cc(C(=O)O)[nH]n1
    i	0.09
> CCc1ccc(-n2c(=O)c3cccnc3n2CC(=O)Nc2ccc(Br)cc2F)cc1
    i	0.23
> CCN(CC)C(=O)c1cccnc1
    i	0.53
> Cn1c(C(=O)N2CCN(c3ccccn3)CC2)cc2c(=O)oc3ccccc3c21
    i	2
> CCC1CCCCN1C(=O)Cc1c(C)nc2nc(-c3ccc(C(C)(C)C)cc3)nn2c1C (configuration not stated)
    i	0.79
> O=C(NCc1ccccn1)C1CCCN(c2ccc3cc(S(=O)(=O)N4CCCC4)ccc3n2)C1 (configuration not stated)
    i	0.84
> Cc1cc(Nc2cccc(O)c2)ncn1
    i	-1.9
> CCOc1ccc(CN2C(=O)c3ccccc3CC2(C)C(=O)NCc2ccccc2)cc1 (configuration not stated)
    i	-0.05
> CC(C)NC(=O)CCn1c(=O)c2ccccc2n2c(SCc3ccc(Cl)cc3)nnc12
    i	-0.09

Compound profiles (already shown). Order of values: Choline anaer gr, Choline anaer gr early
Entry for CCC1CCCCN1C(=O)Cc1c(C)nc2nc(-c3ccc(C(C)(C)C)cc3)nn2c1C (configuration not stated) → i, 0.79
Entry for Cn1nc(C(=O)Nc2ccc(Br)cc2F)cc1C(F)(F)F → i, 1.4
Entry for CC(C)NC(=O)CC1CCN(S(=O)(=O)c2cccs2)CC1 → i, 0.47
Entry for CCOc1cccc(CNC(=O)c2sccc2N(C)S(=O)(=O)c2ccccc2)c1 → i, 0.55

Later entries:
Each structure is followed by: Choline anaer gr	Choline anaer gr early
> COC(=O)c1ccc2c(=O)n(-c3ccc(OC)c(OC)c3)c(N3CCCC3)nc2c1
    i	0.2
> CCCCn1c(C)c(C)c2c1ncn1nc(-c3ccccc3Br)nc21
    i	0.29
> COc1ccc(N2C(=O)c3c(C)nc4ccccc4c3C2=O)cn1
    i	0.94
> CC1(C(=O)NCc2ccc(F)cc2)CCCN(C(=O)NC2COc3ccccc3C2)C1 (configuration not stated)
    i	-0.18
> CCC(C)NC(=O)c1cccc(Oc2cc(-c3ccc(OC)cc3)ncn2)c1 (configuration not stated)
    i	-0.33
> COc1ccc(OC)c(NC(=O)CSc2ncnc3nc(N(C)C)sc23)c1
    i	0.32
> CCCCNC(=O)Cn1c(=O)c(=O)n(C)c2ncccc21
    i	-0.05
> Cc1ccc(-c2c(C(F)(F)F)nn3c(N4CCN(CCO)CC4)cc(C)nc23)cc1
    i	-0.55
> CCSc1nc2ccc(NS(=O)(=O)c3ccc(F)c(F)c3)cc2s1
    i	-0.68
> O=C(Nc1cccc(OCc2cc(=O)n3ccccc3n2)c1)C1CCCCC1
    i	3.2
> Cc1noc(C(=O)Nc2ccc(Cl)cc2)c1Cl
    i	0.36
> COc1ccc(NC(=O)Cn2c(C)cc(C)c(S(=O)(=O)c3ccc(OC)c(OC)c3)c2=O)cc1
    i	-1
> Nc1nc(SCc2ccc(C(=O)NCCO)cc2)nc2sc3c(c12)CCCC3
    i	-1.6
> Cn1c(SCc2ccccc2)nc2cc(-c3ccccc3)sc2c1=O
    i	0.18
> Cc1ccc(C(=O)Nc2c(C)nc3sccn3c2=O)cc1
    i	-1.2
> CCN(CC)C(=S)SSC(=S)N(CC)CC
    i	0.39&0.09&0.3&-0.26
> Cc1c(C2CCN(S(=O)(=O)c3cnc[nH]3)CC2)c2ccccc2n1Cc1cccc(Cl)c1
    i	0.49
> CC(C)CCOc1ccc(N)cc1
    i	0.54
> COc1ccc(NC(=O)CSc2nn3c(=O)c(Cc4ccccc4)nnc3s2)cc1
    i	-0.09
> CCCNC(=O)c1ccc2c(=O)n(CC3CCCO3)c(SCC(=O)c3ccccc3)nc2c1 (configuration not stated)
    i	4.4
> CCc1nc(-c2csc(S(=O)(=O)N3CCCC(C(=O)NC4CCC(C)CC4)C3)c2)no1 (configuration not stated)
    i	0.22
> Cc1cc(C)nc(N2CCC(C(=O)O)CC2)n1
    i	0.53
> CC(NC(=O)c1c(-c2ccccc2)nc2n1CCS2(=O)=O)c1ccccc1 (configuration not stated)
    i	0.88
> CCC(C)Sc1c(C(C)C)cnc2c1c(=O)n(C)c(=O)n2C (configuration not stated)
    i	-0.67
> Cc1cc(C(=O)N2CCCC2c2ccccc2F)on1 (configuration not stated)
    i	-0.53
> Cc1cc(NC(=O)C2CCCC2)n(-c2ncnc3c2cnn3-c2ccc(Cl)cc2)n1
    i	-1
> CCn1ccc2cc(S(=O)(=O)N3CCCC(C(=O)NCCCN(C)C4CCCCC4)C3)ccc21 (configuration not stated)
    i	-0.32
> COc1ccccc1Oc1ccnc(-c2cccc(C(=O)Nc3cccc(C)c3)c2)n1
    i	-0.42
> Cc1ccc(-c2cc(C(F)(F)F)n3ncc(C(=O)N(C)Cc4c(C)nn(C)c4C)c3n2)cc1
    i	-1.7
> O=C(c1ccc2c(=O)n3c(nc2c1)CCCC3)N1CCC(Cc2ccccc2)CC1
    i	0.76

Additional structures follow.
Each structure is followed by: Choline anaer gr	Choline anaer gr early
> CCc1ccc(S(=O)(=O)Nc2ccc(CCc3nc4ccccc4n3CC)cc2)cc1
    i	0.88
> COc1ccc(CNC(=O)c2ccc3cnn(Cc4cccc(Cl)c4)c3c2)cc1
    i	0.76
> Cc1noc2c1C(c1ccc(Br)c(F)c1)C1=C(CC(c3ccccc3)CC1=O)N2 (configuration not stated)
    i	0.87
> CC(=O)N1N=C(c2c(O)n(C)c(=S)n(C)c2=O)CC1c1ccc(C(C)C)cc1 (configuration not stated)
    i	-0.75
> Cc1cnc(NC(=O)CSc2nnc(CN(c3ccc(F)cc3)S(C)(=O)=O)n2C)s1
    i	-0.39
> Cc1ccc(NC2=C(C(N)=O)S(=O)(=O)c3ccccc32)cc1
    i	-0.4
> Cc1ccc2nc(COc3ccccc3NC(=O)Nc3cccc(Cl)c3)cc(=O)n2c1
    i	0.98
> CCCNC(=O)C1CCN(c2nc3nc[nH]c(=O)c3s2)CC1
    i	0.43
> Cc1[nH]nc(-c2c(C)sc(C)c2S(=O)(=O)Nc2ccc(Cl)cc2)c1C
    i	1.2
> O=c1c2cn[nH]c2nc(SCc2nc(-c3ccc(F)c(Cl)c3)no2)n1-c1ccccc1
    i	1.2
> COCCn1c(C2CCN(C(=O)c3ccc(C(F)(F)F)s3)C2)nc2cccnc21 (configuration not stated)
    i	0.32
> NC(=O)OCC(O)COc1ccc(Cl)cc1 (configuration not stated)
    i	0.23
> C=CCOc1cccc(NC(=O)CN2c3ccc(Br)cc3-c3ccccc3S2(=O)=O)c1
    i	0.83
> OC(COc1ccc(Br)cc1)Cn1c(Cc2ccccc2)nc2ccccc21 (configuration not stated)
    i	0.78
> O=C(COCc1cc(-c2ccc3c(c2)OCO3)on1)Nc1ccc2c(c1)OCCO2
    i	-1.3
> O=S(=O)(c1ccc(F)cc1)N1CCN(c2ncnc3c2nnn3-c2ccc(F)cc2)CC1
    i	0.39
> Cc1ccc(CNC(=O)C2(C)CCCN(C(=O)NC3COc4ccccc4C3)C2)cc1 (configuration not stated)
    i	-0.29
> CC(C)CN1CCn2c(nc3ccccc32)C1
    i	0.19
